Compound activity as filed in PubChem BioAssay.
PrP UTR inh: suppresses PrP 5' UTR mRNA reporter expression. cell-based PrP 5' UTR mRNA reporter, plate reader. inhibition, % (concentration not given with the values). 340,000 compounds, 0.35% hits. AID 488862;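 active = every replicate at 50% or more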;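 note: 0 = median of the neutral control wells; tested in H4 reporter cells; numbers are from one replicate; inactives centre near -14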
ugtP null kill: kills S. aureus RN4220 lacking UgtP; S. aureus RN4220 ugtP deletion, OD600 growth, 16 h; some inactives read as strong as hits; growth inhibition, % (no concentration beside the values); AID 1259309; 330,000 compounds, 0.54% hits;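 active = z-score under -3 and OD600 up to 0.15 on both plates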;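 note: plate controls were untreated wells for no effect and antibiotic for full effect; wells of about 80 µL received 100 nL stock; the first replicate is given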
RN4220 kill: S. aureus RN4220 growth inhibition | OD600, 16 h | inhibition, % (no concentration beside the values) | 330,000 compounds, 0.33% hits | AID 1259311;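 active = z-score of -3 or lower and OD600 up to 0.18 on both plates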;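 note: plate controls were untreated cells for no effect and reference antibiotic for full effect; stock transfer was 100 nL into about 80 µL; one replicate is shown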
Mtb hypoxia inh: reduces hypoxia-regulated biosensor signal in M. tuberculosis | M. tuberculosis hypoxia-regulated fluorescent reporter, fluorescence | AID 1159583 | fluorescence inhibition, % (no concentration beside the values) | 300,000 compounds, 0.1% hits;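 active = 35 to 45% if threefold the growth effect, above 45% if 1.5-fold the growth effect; inactive = the rest, general growth blockers included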;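 note: wells of about 50 µL received 100 nL stock; 0% = vehicle wells and 100% = reference inhibitor wells; whole bacteria with a GFP reporter of the hypoxia response; strong numbers were not always called active; many hits fall short of the cut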
BJeLR lethal: kills HRASV12-expressing BJeLR cells | BJeLR (HRASV12) viability, CellTiter-Glo ATP luminescence, 48 h; reference of the scale not given here | inhibition, % (concentration not given with the values) | 300,000 compounds, 0.17% hits;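 active = replicate mean above 50%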;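 note: 50 nL library stock added to about 25 µL; numbers are from one replicate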
Autofluor counter: counter-screen for toxin protease inhibitors: compound fluorescence | compound autofluorescence counterscreen, microsphere flow cytometry; hits give high values | fluorescence intensity (no concentration beside the values) | 360,000 compounds, 3.1% hits | AID 624483;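 active = at least 3 SD above the mean of all compounds, about 16000 in these data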;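 note: 100 nL of 1 mM stock went into each well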
Mtb hypoxia inh growth: further read-out of Mtb hypoxia inh, marked with its call; growth inhibition, %; measured here: M. tuberculosis growth (absorbance);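 0% = vehicle and 100% = reference antibiotic; read after six days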
* = called active by the depositor; x = not tested or not shown.

nr	SMILES	PrP UTR inh	ugtP null kill	RN4220 kill	Mtb hypoxia inh	Mtb hypoxia inh growth	BJeLR lethal	Autofluor counter
1	COc1ccc(/C=C(\C#N)C(=O)OCC(=O)Nc2ccc(C(C)(C)C)cc2)cc1	6	3	5.8	11	0	3	8789
2	CSCCC(NC(=O)c1ccccc1Br)C(=O)NCC(c1ccco1)N1CCCCC1 (configuration not stated)	2	8	4.8	1	3	-2	4656
3	Cc1ccc(-n2c(C)cc(C=C(C#N)C#N)c2C)cc1	0	10	1.6	x	x	0	3605
4	O=C(C1=C(O)C(=O)N(c2ncccn2)C1c1ccc(F)cc1)c1ccco1 (configuration not stated)	-7	2	0.8	3	1	0	3368
5	CN1CCN(C(CC(=O)Nc2cccc(O)c2)C(=O)O)CC1 (configuration not stated)	x	4	4.3	13	7	6	x
6	COc1ccc2nc(SCC(=O)NC3CCCCC3)[nH]c2c1	-16	4	0.6	9	11	-1	3288
7	CC(C)CCc1noc(CN2CCN(c3ccc(Cl)cn3)CC2)n1	-21	8	-0.7	-1	-1	1	2689
8	O=C(CCc1nc(-c2ccccc2)no1)NCC1CCCO1 (configuration not stated)	-24	-4	-0.3	x	x	-2	2430
9	OCCC1CN(CC2CCCCC2)CCN1C1CCCC1 (configuration not stated)	-17	6	3.1	-7	0	5	2997
10	CN(C)CCCNS(=O)(=O)c1ccc(Oc2ncc(C(F)(F)F)cc2Cl)cc1	-17	-5	4.1	-4	4	1	3364
11	COc1ccc(-c2cc(-c3ccc(O)cc3)nc(N)c2C#N)cc1	-23	2	6.8	7	0	-6	3913
12	COc1ccccc1N1C(=NC(=O)C2CCCCC2)SC2CS(=O)(=O)CC21 (configuration not stated)	-22	2	-0.1	9	2	-3	4641
13	C=CCC(CC(O)COCCC)C(=O)NNC(=S)Nc1ccccc1 (configuration not stated)	-2	0	5.8	10	6	-5	6365
14	CC(C)COC(=O)n1c(SCC(=O)N(C)C)nc2ccccc21	-35	5	-2.5	x	x	-4	3931
15	O=[N+]([O-])c1ccc(OCC(O)CNCCNc2nccc(C(F)(F)F)n2)cc1 (configuration not stated)	-2	9	2.0	7	0	-8	4274
16	Cc1nn2c(N3CCN(c4ccccn4)CC3)cc(C(C)C)nc2c1-c1ccccc1	-18	-6	-5.7	8	25	-3	x
17	COc1ccc(Cn2c(CCCO)nc3ccccc32)cc1OC	-1	-8	0.4	x	x	-6	3137
18	O=C(NN=C1CCCCCC1)NC1CCCCC1	-6	18	3.0	12	7	-3	2612
19	COC(=O)c1c(C(=O)OC)c(-c2ccc(C)cc2)n2c1CCC2	-68	2	2.1	6	13	1	24446*
20	C=C(C)CNC(=S)NNC(=O)c1cc(C)oc1C	-19	1	0.0	-6	3	-6	2349
21	Cc1ccc(Cn2ccccc2=N)cc1	-11	3	1.6	6	4	-10	3554
22	FC(F)(F)c1n[nH]c(=S)n1N=Cc1ccco1	x	0	1.8	2	8	x	x
23	COc1ccc(Cn2nnnc2C(c2cccs2)N2CCOCC2)cc1 (configuration not stated)	6	-4	2.9	2	3	8	2870
24	O=C(NCC1CCCO1)C1CCC(=O)N1Cc1ccc(F)cc1 (configuration not stated)	-11	8	2.6	1	-3	-8	7860
25	C=CC[N+](C)(C)C/C(Cl)=C(\Cl)c1ccccc1	-3	2	0.6	x	x	7	2728
26	O=C(COC(=O)Cc1ccsc1)Nc1ccccc1Cl	-17	9	10	13	-2	x	3829
27	Cc1ccc(NC(=O)CN(C)C(=O)CSc2nccn2C)cc1	-17	0	1.1	10	-6	x	3831
28	Cc1noc(C)c1NC(=O)N(C)CC1Oc2ccc(NC(=O)CCC(F)(F)F)cc2C(=O)N(C(C)CO)CC1C (configuration not stated)	x	-8	3.6	10	10	x	x
29	COc1ccc(NC(=O)c2ccc3c(SCC(=O)O)c4c(nc3c2)CCCC4)c(OC)c1	-11	-1	7.4	-1	-3	-13	4455
30	O=C(Cc1c(F)cccc1Cl)OCC(=O)N1CCc2ccccc21	-21	4	4.5	11	8	x	3866
31	CCCOc1ccc(C(=O)Nc2nc(C)c(Cc3ccc4c(c3)OCO4)s2)cc1	-62	-28	-2.0	-6	8	10	1919
32	CC(=O)c1ccc(NC(=O)C2C3CCC(C3)C2C(=O)O)cc1 (configuration not stated)	-18	4	5.6	2	8	8	3157
33	Cc1ccc(Nc2c(-c3ccccc3O)nc3cnccn23)cc1	-9	1	13	0	5	8	3337
34	CN(C)/C(CN1CCCCC1)=C1\N=C(c2ccccc2)OC1=O	-30	-1	-0.2	-1	-4	-14	9828
35	Cc1ccc(C)c(NC(=O)C2CCCN(S(=O)(=O)c3cccnc3)C2)c1 (configuration not stated)	3	-2	-0.7	5	-2	-6	4364
36	CCOC(=O)C1(Cc2cccc(F)c2)CCN(C(=O)c2cscn2)CC1	-16	4	11	14	8	11	2513

Structures listed so far that contain a Cl atom (5):
nr	SMILES	PrP UTR inh	ugtP null kill	RN4220 kill	Mtb hypoxia inh	Mtb hypoxia inh growth	BJeLR lethal	Autofluor counter
7	CC(C)CCc1noc(CN2CCN(c3ccc(Cl)cn3)CC2)n1	-21	8	-0.7	-1	-1	1	2689
10	CN(C)CCCNS(=O)(=O)c1ccc(Oc2ncc(C(F)(F)F)cc2Cl)cc1	-17	-5	4.1	-4	4	1	3364
25	C=CC[N+](C)(C)C/C(Cl)=C(\Cl)c1ccccc1	-3	2	0.6	x	x	7	2728
26	O=C(COC(=O)Cc1ccsc1)Nc1ccccc1Cl	-17	9	10	13	-2	x	3829
30	O=C(Cc1c(F)cccc1Cl)OCC(=O)N1CCc2ccccc21	-21	4	4.5	11	8	x	3866

(further entries)
nr	SMILES	PrP UTR inh	ugtP null kill	RN4220 kill	Mtb hypoxia inh	Mtb hypoxia inh growth	BJeLR lethal	Autofluor counter
37	Cc1cccc(C)c1OCC(=O)N/N=C/c1cccn1C	-8	x	x	x	x	-1	8070
38	O=C(NCc1ccc2c(c1)OCO2)C1CCC(=O)N1C1CCCCC1 (configuration not stated)	3	2	3.5	10	-2	13	4626
39	COc1ccc(S(N)(=O)=O)cc1C(=O)OCC(=O)N1c2ccccc2NC(=O)C1(C)C	-24	-1	1.9	-2	-3	x	2854
40	COc1ccc(NC(=O)C2CCC(CNS(=O)(=O)c3csc(C(N)=O)c3)CC2)cc1OC (configuration not stated)	-2	-4	-2.2	-9	-2	13	5871
41	O=C(NN=Cc1ccc(Cl)cc1)c1sccc1OCc1ccc(F)cc1	x	-23	1.1	9	5	x	x
42	CCc1c(-c2ccccc2)[n+](=O)c2c(n1[O-])CCC2	-9	6	3.7	-14	11	14	3729
43	COc1ccc(C(CC(=O)O)NC(=O)c2ccco2)cc1 (configuration not stated)	-13	1	2.7	14	11	2	9074
44	O=C1CCC/C=C/C[C@@H](CC(=O)N(CCO)Cc2ccccc2)C(=O)NC[C@@H](c2ccccc2)O1	8	9	-1.0	1	-5	x	2908
45	O=C(CNc1ccccc1F)Nc1cc(S(=O)(=O)N2CCCCC2)ccc1Cl	-9	13	2.8	16	4	x	3673
46	Cc1ccc(C)c(NC(=O)CCN2CCC(C)CC2)c1	-20	1	-1.6	-1	13	-4	3855
47	Nc1cccc(CCc2nc3ccccc3[nH]2)c1	-33	22	7.4	-7	-5	-3	7559
48	COc1ccc2c(c1)CCc1c(C(=O)NCCc3ccc(OC)c(OC)c3)noc1-2	x	-4	7.7	3	14	-1	11546

Next part; it opens with the 3 that closed the last part.
nr	SMILES	PrP UTR inh	ugtP null kill	RN4220 kill	Mtb hypoxia inh	Mtb hypoxia inh growth	BJeLR lethal	Autofluor counter
46	Cc1ccc(C)c(NC(=O)CCN2CCC(C)CC2)c1	-20	1	-1.6	-1	13	-4	3855
47	Nc1cccc(CCc2nc3ccccc3[nH]2)c1	-33	22	7.4	-7	-5	-3	7559
48	COc1ccc2c(c1)CCc1c(C(=O)NCCc3ccc(OC)c(OC)c3)noc1-2	x	-4	7.7	3	14	-1	11546
49	CC(C)c1ccc(N(CC(=O)N/N=C/c2ccc(OC3CSC3)cc2)S(=O)(=O)c2ccccc2)cc1	-8	x	x	x	x	-8	2201
50	COc1ccc2oc(=N)c(C(=O)Nc3ccc(Br)cc3)cc2c1	-3	-3	-2.9	-8	-6	-7	2901
51	COc1ccc(COC(=O)c2cc(S(=O)(=O)N3CCCCC3)ccc2N2CCOCC2)cc1	-12	2	2.8	-4	4	-3	x
52	O=C(CNC(=S)N(Cc1ccccc1)Cc1ccccc1F)NCc1ccccc1	-16	11	-0.8	0	5	4	4888
53	O=C(O)c1ccc(CSc2ccccn2)cc1	-14	0	2.2	-8	-8	3	4429
54	COc1ccccc1S(=O)(=O)NCc1ccc(C(=O)NC(C)c2ccccn2)cc1 (configuration not stated)	0	-2	-2.5	-5	-3	x	6494
55	Cc1ccc2[nH]cc(S(=O)(=O)c3ccc(C(C)C)cc3)c(=O)c2c1	-21	-7	-2.1	-4	6	-6	3960
56	CN(C)c1cccc(C(=O)OCC(=O)NC2CCCC2)c1	-9	-6	-0.5	-7	-3	-3	3582
57	COc1ccc(OC)c(S(=O)(=O)NC(C)c2ccc(-n3ccnc3)cc2)c1 (configuration not stated)	-9	1	0.5	3	9	x	5735
58	C=CCn1c(SCC(=O)O)nnc1-c1ccc(C(C)(C)C)cc1	-14	-2	2.0	x	x	5	4873
59	CCOC(=O)C1CCN(S(=O)(=O)c2ccc(CN3C(=O)c4cccnc4C3=O)cc2)CC1	-10	7	-0.2	0	-8	-2	4283
60	C=CCn1c(NCCO)nc2sc3c(c2c1=O)CCC3	-12	8	7.1	6	8	14	5969
61	Cc1[nH]c2ccc(C(=O)NC3CCCC3)cc2c1C	-12	12	9.5	23	16	x	2917
62	C=CCOC(=O)C1=C(C)NC(=O)NC1c1ccc(N(C)C)cc1 (configuration not stated)	-31	0	1.7	5	-4	-1	x
63	O=c1c(Cc2ccccc2)c(O)ccn1Cc1ccc2c(c1)OCO2	-18	4	8.0	10	4	3	4617
64	COCCNC(=O)c1ccc(N2CC3CC(C2)c2cccc(=O)n2C3)c(NC(=O)c2cc(OC)cc(OC)c2)c1 (configuration not stated)	1	3	-0.4	-4	-4	11	4434
65	Cc1ccc(S(=O)(=O)NCC(C)n2nc(C)cc2C)cc1 (configuration not stated)	-17	1	2.0	9	5	-15	4029
66	O=C(O)C(Cc1ccccc1)N1C(=O)c2cccc3cccc(c23)C1=O (configuration not stated)	-8	2	4.8	-5	-6	-8	3679
67	COc1ccc(C2=Nn3c(nnc3-c3cccnc3)SC2)cc1	-31	2	6.3	-9	2	6	9427
68	O=C(O)CCN1CC2([N+](=O)[O-])CC=C(OCCO)C([N+](=O)[O-])(C1)C2 (configuration not stated)	-13	6	3.6	7	2	-10	4573
69	O=C(NC(=S)Nc1ccccc1N1CCN(C(=O)c2ccccc2)CC1)c1ccccc1F	-8	2	-3.8	0	5	-10	6682
70	Cc1cc(C)nc(SC(C)C(=O)NN=Cc2cccs2)n1 (configuration not stated)	x	10	0.4	7	1	x	x
71	Cc1onc(-c2ccccc2)c1-c1ccnc(N)n1	-16	29	2.1	2	-1	5	4248
72	Cc1ccc(S(=O)(=O)Nc2ccccc2C(=O)Nc2sccc2C(=O)NN(C)C)cc1	-25	0	4.1	-1	-2	2	5876

Along the list, as entered above.
ugtP null kill for entries 63–72: 4, 3, 1, 2, 2, 6, 2, 10, 29, 0
BJeLR lethal for entries 63–72: 3, 11, -15, -8, 6, -10, -10, x, 5, 2

New compounds follow
nr	SMILES	PrP UTR inh	ugtP null kill	RN4220 kill	Mtb hypoxia inh	Mtb hypoxia inh growth	BJeLR lethal	Autofluor counter
73	Cc1ccc(C)c(NC(=O)C(=O)NCc2ccccn2)c1	-10	1	-2.8	2	3	-4	2084
74	O=[N+]([O-])c1ccc(P(=O)(Cc2ccccc2)c2ccccc2O)cc1 (configuration not stated)	-17	4	5.3	0	8	-6	3886
75	Cc1cccc(NC(=O)CSc2nc(C3CC3)nc3ccccc23)c1	-2	2	2.1	-6	6	1	3556
76	O=C(CCCCCNc1nc(=S)[nH]c2ccccc12)NCc1ccccc1Cl	x	5	-7.5	10	6	-2	x

In the list so far, these have a tert-butyl group.
nr	SMILES	PrP UTR inh	ugtP null kill	RN4220 kill	Mtb hypoxia inh	Mtb hypoxia inh growth	BJeLR lethal	Autofluor counter
1	COc1ccc(/C=C(\C#N)C(=O)OCC(=O)Nc2ccc(C(C)(C)C)cc2)cc1	6	3	5.8	11	0	3	8789
58	C=CCn1c(SCC(=O)O)nnc1-c1ccc(C(C)(C)C)cc1	-14	-2	2.0	x	x	5	4873
